Arbovirus anti = antivirals against arbovirus infection, primary screen, cell-based, full library, 10K replicate subset | arbovirus infection cell-based antiviral screen | inhibition, % at 10 µM | 200,000 compounds, 0.37% hits | AID 1251, 2008;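 active = inhibition from about 30%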;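 also: bluetongue infection of BSR cells; cell survival read as ATP light after 72 h; 0% = infected wells without compound and 100% = uninfected wells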
YopH PTP inh = YopH tyrosine phosphatase inhibitors, primary screen, biochemical, fluorescence Ex485/Em525. inhibition, %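 (about 10 µM by stock and volumes)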. 140,000 compounds, 0.16% hits. YopH tyrosine phosphatase [Yersinia enterocolitica]. AID 898, 2007;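 active = inhibition of 50% or more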;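 also: controls were vehicle for no effect and minimum signal wells for full effect; inactives centre near -20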
RecA intein inh = Mtb RecA intein splicing inhibitors, primary screen, biochemical, fluorescence, HTS; cell-free RecA intein splicing; AID 2221, 2009; 290,000 compounds, 0.75% hits; inhibition, %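 (about 9 µM by stock and volumes)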; in the data active = inhibition above about 30%; inconclusive = no clear call, values can overlap the other calls;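 also: 0% = vehicle wells and 100% = reference inhibitor control wells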
Target sequence (P9WHJ3 whole entry, looked up): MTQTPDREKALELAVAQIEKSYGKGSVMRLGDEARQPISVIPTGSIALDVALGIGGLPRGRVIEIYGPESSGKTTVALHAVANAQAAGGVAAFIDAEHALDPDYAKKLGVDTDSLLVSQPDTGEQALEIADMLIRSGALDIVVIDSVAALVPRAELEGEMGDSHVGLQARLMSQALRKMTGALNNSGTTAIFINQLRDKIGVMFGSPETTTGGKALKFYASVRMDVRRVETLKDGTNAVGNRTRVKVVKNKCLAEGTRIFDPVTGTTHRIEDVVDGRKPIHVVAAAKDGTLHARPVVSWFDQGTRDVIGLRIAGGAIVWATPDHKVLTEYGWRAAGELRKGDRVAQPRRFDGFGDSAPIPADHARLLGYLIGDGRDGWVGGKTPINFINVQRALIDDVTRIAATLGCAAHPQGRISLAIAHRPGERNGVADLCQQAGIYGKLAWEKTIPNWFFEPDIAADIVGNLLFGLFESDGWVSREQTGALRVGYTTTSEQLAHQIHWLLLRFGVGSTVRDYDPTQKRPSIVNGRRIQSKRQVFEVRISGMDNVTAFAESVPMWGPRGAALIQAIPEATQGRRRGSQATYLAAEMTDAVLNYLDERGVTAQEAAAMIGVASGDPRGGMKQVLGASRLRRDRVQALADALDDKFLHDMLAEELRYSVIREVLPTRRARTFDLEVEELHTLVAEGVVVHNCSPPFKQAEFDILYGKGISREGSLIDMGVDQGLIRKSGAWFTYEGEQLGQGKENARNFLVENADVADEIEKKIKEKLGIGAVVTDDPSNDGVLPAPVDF
Mtb H37Rv = M. tuberculosis H37Rv growth inhibitors, H37Rv strain (AID 1626). M. tuberculosis H37Rv growth inhibition; higher % means a stronger effect. inhibition, % at 10 µM, or IC50 in µM where a hit was titrated. 220,000 compounds, 0.95% hits;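 active = confirmed in a dose series; inconclusive = inhibition above 80% but not taken into the dose series; inactive = below 80% or under 30% at every dose of the series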;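 also: bacteria incubated seven days before Alamar blue readout; 0% = bacteria only wells and 100% = bacteria with antibiotic wells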
Mtb bLac sens = beta-lactam sensitization of Mtb H37Rv, H37Rv; M. tuberculosis H37Rv growth with meropenem, percent inhibition; hits of this screen are not shown here; inhibition, % at 25 µM; 330,000 compounds, 0.27% hits; AID 434955, 2010;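 active = about 74% or more and at least 40 points above the plate without the antibiotic, then above 30% in a dose series; inconclusive = first-round hits that could not be retested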;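 also: growth measured after seven days incubation then overnight dye step; 0% = bacteria only wells and 100% = bacteria with antibiotic; twin plates without the antibiotic show which effects depend on it; some results filed as inactive read as strong as hits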
Arbovirus anti repeat = also measured in Arbovirus anti; calls as there; inhibition, %; measured here: 10K subset replicate screen; many hits read low in the repeat;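 first of two repeat runs on a subset; 0% = infected and 100% = uninfected wells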
Active calls of the source: *; u = inconclusive; x = no result given; & = joins results of further samples. A portion of the library. The share of hits here may be higher or lower than overall.

SMILES | Arbovirus anti | YopH PTP inh | RecA intein inh | Mtb H37Rv | Mtb bLac sens | others
Cc1cccc(C(=O)NCCNC(=O)c2ccccn2)c1 | x | x | 3.3 | x | 5
COC(=O)c1c(NC(=O)c2nn(C)cc2Cl)sc2c1CCCC2 | 7 | -34 | -4.4 | -5% | -11
CCC1(CC)N=C(c2ccccc2)C(=S)N1 | 1 | x | 0.9 | -3% | -2
Cc1c(N(C)C(=O)c2ccco2)c(=O)n(-c2ccccc2)n1C | -3 | -8 | 0.2 | -7% | -3
Nc1ccc(N(CCO)CCO)cc1 | -5 | x | 63* | -6% | 8
Cc1ccc(S(=O)(=O)Nc2ccccc2C(=O)N2CCN(C)CC2)cc1 | x | x | 1.0 | x | u
Cc1cc(C(=O)C(=O)N(C)C)c(C)n1-c1ccc([N+](=O)[O-])cc1 | 0 | 0 | 0.2 | -6% | -5
O=C(CN1C(=O)C2C3C=CC(C3)C2C1=O)N1CC=C(c2ccccc2)CC1 (centres undefined) | 3 | -32 | 2.2 | 3% | -4
CCCCSc1nc(O)c(C2OC(=O)c3c2ccc(OC)c3OC)c(=O)n1-c1ccccc1 (centres undefined) | -4 | -37 | 0.8 | -6% | -1
CCCCn1c(N)c(N(CC(C)C)C(=O)CCC2CCCCC2)c(=O)[nH]c1=O | x | x | 0.5 | x | -14
Cc1cc(S(=O)(=O)Nc2ccc(C(=O)NCc3ccncc3)cc2)ccc1F | x | x | -1.6 | x | 5
COc1ccc(NC(=O)CSc2nnc(-c3ccncc3)o2)c([N+](=O)[O-])c1 | x | x | -1.9 | x | -4
C=CCNC(=O)c1scc2c1CCCC2 | 5 | -39 | 2.3 | 3% | 1
COc1ccc2nc(COC(=O)c3ccco3)c(C(C)=O)[n+]([O-])c2c1 | 0 | -7 | -1.4 | -3% | 22
Nc1nc(CN2CCc3ccccc3C2)nc(Nc2ccccc2)n1 | 3 | -20 | 4.1 | 12% | 82
CCCCN(CC)CCNC(=O)C1CCN(S(=O)(=O)c2cccc3nsnc23)CC1 | x | x | 4.3 | x | 5
COc1ccc(C2C=C(C)Nc3ncnn32)cc1 (centres undefined) | x | x | -4.8 | x | 4
CC1=C(C(=O)N2CCOCC2)C(c2ccc(Br)cc2)NC(=S)N1c1ccccc1 (centres undefined) | 19 | x | -1.8 | -2% | -3
CC1CN(C(=O)c2ccc(-c3ccccc3Cl)o2)CC(C)O1 (centres undefined) | x | x | 2.9 | x | -7
CCOc1ccc(C(=O)N2CCN(c3ccccn3)CC2)cc1OCC | x | x | -2.8 | x | 1
O=C1Nc2ccccc2OCc2c1cccc2[N+](=O)[O-] | -2 | x | -7.4 | 6% | -1
C#CCOCCOCCOCCNc1nc(N2CCN(C(=O)[C@H]([C@@H](C)CC)n3cc([C@@H](N)CO)nn3)CC2)nc(N2CCN(C(=O)[C@H]([C@@H](C)CC)n3cc([C@@H](N)Cc4ccc(O)cc4)nn3)CC2)n1 | 2 | x | 5.6 | -1% | -5
CCOC(=O)c1sc(/N=C/Nc2nc(C)c(C(=O)OCC)s2)nc1C | -5 | -35 | x | 0% | x
CC(=O)NC(Cc1ccc(O)cc1)C(=O)NN (centres undefined) | 7 | x | x | -2% | -3
O=C(Nc1ccc2c(c1)C(=O)NC2=O)c1ccccc1Cl | x | x | 0.6 | x | -2
C#CC(CC)(CC)NC(=O)Nc1ccccc1C(=O)OC | 2 | x | 1.3 | 4% | 1
COc1ccc(C=C(c2ccc(OC)cc2)c2ccc(OC)cc2)cc1 | 14 | 12 | 1.0 | -2% | 48
N/C(=N\C(=S)Nc1ccccc1)c1ccccc1 | x | x | 2.8 | x | 6
COc1ccc(-c2c(C(F)(F)F)nn(C)c2NC(=O)c2cccnc2)cc1 | x | x | 1.7 | 3% | 0
CCCCCCCC1(C)NC(=O)N(CC(=O)Nc2cc(C)on2)C1=O (centres undefined) | -6 | x | 5.4 | 3% | 9
CC1(C)C2([N+](=O)[O-])CNCC1([N+](=O)[O-])CNC2 | 6 | -16 | -2.5 | -8% | -11
CC(=O)N1CCc2c(sc(NC(=O)c3cccc(N4C(=O)CCC4=O)c3)c2C(N)=O)C1 | x | x | 6.0 | x | -11
C=CCn1c(SCC(=O)Nc2ccc(C(=O)O)cc2)nnc1-c1cccnc1 | x | x | -0.4 | -3% | -1
O=C(Nc1cccc(Cl)c1)N1CCN(C/C=C/c2ccccc2)CC1 | -2 | -30 | 3.6 | 3% | 95
Cc1ccc2ccc3ccc(C)nc3c2n1 | x | x | 3.8 | x | 100
CNc1oc(-c2ccccc2Cl)nc1P(=O)(c1ccccc1)c1ccccc1 | -26 | -22 | 0.5 | 0% | 6
CCN(CC)C(=O)CCc1nc2sc3c(c2c(=O)[nH]1)CCCC3 | -3 | -15 | -1.6 | -6% | -2
COCCNC(=O)c1oc2ccc3c(c2c1C)C(O)CC(C)(C)O3 (centres undefined) | x | x | -0.7 | x | -3
O=C(CSc1nnc(SCc2ccccc2)s1)N/N=C/c1ccc(Cl)cc1Cl | 5 | -23 | -9.8 | x | x
Cc1ccccc1NC(=O)NCc1ccco1 | 2 | 19 | 1.5 | -9% | -4
COC(=O)c1cc(S(=O)(=O)NCC2CCN(CCc3cccs3)CC2)c[nH]1 | x | x | -1.4 | x | 1
O=P(C(c1ccc2c(c1)OCO2)N1CCOCC1)(N1CCOCC1)N1CCOCC1 (centres undefined) | 8 | -26 | -2.9 | -4% | -6
O=C1NCCCC1C(=O)N/N=C/c1ccccc1[N+](=O)[O-] (centres undefined) | x | x | -4.6 | 1% | 2
Oc1ccccc1C=NC1CCCCC1N=Cc1ccccc1O (centres undefined) | -3 | x | 4.2 | 0% | -7
CC(=O)NC1=NN(C(C)=O)C(C)(c2ccc(Cl)s2)S1 (centres undefined) | -19 | -26 | 0.3 | -5% | -4
COc1cc(OC)cc(C(=O)NN2CCCCC2)c1 | 0 | -30 | x | -7% | u
COc1ccc(Cn2ccc(=O)c(Cc3c(Cl)cccc3Cl)c2C)cc1 | 2 | -21 | 8.4 | -2% | 2
Cc1nnc(SCCC(=O)Nc2ccc(F)cc2)s1 | 8 | -11 | 0.8 | 1% | 81
CCOC(=O)/C(C#N)=N\Nc1ccc(S(=O)(=O)Nc2nc(C)cc(C)n2)cc1 | 1 | -33 | -1.8 | 5% | 1
O=S(=O)(/C=C/c1ccccc1)Nc1ccc(N2CCOCC2)cc1 | -4 | 0 | -2.9 | -13% | -15
O=C1CCN(Cc2ccccc2)C(=O)N1c1ccccc1 | x | x | 1.0 | -11% | -8
CC1CN(c2nn3c(=O)c4ccccc4nc3c3ccccc23)CC(C)O1 (centres undefined) | -13 | -46 | 1.4 | 5% | 23
CCc1c(C)nc2nc(SCc3ccccc3Cl)[nH]n2c1=O | x | x | -0.9 | x | 6
N#Cc1c2n(cnc1=O)CCCCC2 | 3 | -2 | -2.2 | -4% | -1 | Arbovirus anti repeat=4
Cc1nc(-c2ccncc2)sc1C(=O)Nc1ccc(Br)cc1 | 1 | x | 3.0 | 5% | 2
COc1ccccc1-c1nc(-c2ccccn2)no1 | -7 | -45 | -0.7 | 1% | -1 | Arbovirus anti repeat=-10
Cc1ccc(C2(C)NC(=O)N(CC(=O)Nc3ccccc3N3CCCCC3)C2=O)cc1 (centres undefined) | x | x | 8.5 | x | -12
CCCCn1c(=O)c(C(=O)NCc2ccccc2Cl)c(O)c2ccccc21 | x | x | -4.3 | x | 1
C=CCn1c2ccccc2c2nnc(SC(CC)C(=O)Nc3sc4c(c3C#N)CCCC4)nc21 (centres undefined) | -9 | -20 | -0.4 | -4% | 6
Cc1nnn(-c2nonc2N)c1C(=O)N/N=C/c1cccc2ccccc12 | 8 | -22 | 3.4 | 19% | -2

Additional results
SMILES | Arbovirus anti | YopH PTP inh | RecA intein inh | Mtb H37Rv | Mtb bLac sens | others
CC(=O)c1cccc(CN2CCC(C(=O)Nc3ccc(-c4cccc(C)c4)cc3)CC2)c1 | x | x | 0.9 | x | 94
COc1cccc(Cl)c1NC(=O)N1CCc2c([nH]c3ccccc23)C1C(F)(F)F (centres undefined) | x | x | x | -18% | 2
COc1ccc(C2=Nn3c(nnc3-c3ccc(OC)cc3)SC2)cc1 | -18 | -33 | -1.5 | -1% | 52
Cc1ccc2c(c1)NCC(C(=O)NCc1ccccc1)O2 (centres undefined) | 0 | -24 | -1.3 | x | 0 | Arbovirus anti repeat=-3
O=C(NC1CCCc2c1cnn2-c1ccccc1F)c1ccccc1N1CCOCC1 (centres undefined) | x | x | 1.3 | x | -10
Cc1cc(NN)nc(NS(=O)(=O)c2ccc(Cl)cc2)n1 | -6 | x | -1.5 | 0% | 0
COc1cc(Cl)c(S(=O)(=O)N2CCOCC2)cc1Cl | -2 | -9 | -0.6 | -11% | -3
Cc1nn(CC(=O)N2CCc3ccccc3C2)c(C)c1Cl | x | x | 7.9 | x | 6
O=C(CSc1ncc(-c2ccccc2)n1CC1CCCO1)N1CCCCC1 (centres undefined) | 17 | -1 | -1.4 | -5% | -3
CC(=O)CC(c1ccccc1)c1c(O)c2ccccc2oc1=O (centres undefined) | x | x | 2.8&1.7&-2.2 | x | 7&-2&-1
O=C(CNC(=O)c1ccc(Br)o1)Nc1cccc(S(=O)(=O)N2CCOCC2)c1 | x | x | -0.2 | x | -2
O=C(Cc1ccc2c(c1)OCCO2)N1CCN(S(=O)(=O)c2cccc(C(F)(F)F)c2)CC1 | 3 | -23 | -2.6 | 1% | u
CCCCCCc1cc2cc(S(=O)(=O)c3ccc(F)c(Cl)c3)c(=O)oc2cc1O | -8 | -7 | -112 | -6% | -2
Cc1ccc(/C=N/Nc2ccc(Cl)c(C(=O)O)c2)s1 | 3 | -2 | -5.1 | 4% | -1
CC1CCCCC1NC(=O)Cn1nnc2ccccc2c1=O (centres undefined) | 3 | x | 8.9 | 1% | -2
O=C1CNC(=O)/C1=C/c1ccc(O)cc1 | 15 | -35 | 1.2 | 0% | -2
COc1ccccc1-n1c(-c2cccs2)nc2ccccc2c1=O | 16 | x | 5.1 | 8% | 0
CC(=O)C1=C(O)C(=O)N(c2ccc(C)cc2)C1c1ccc([N+](=O)[O-])cc1 (centres undefined) | 6 | x | -2.5 | 1% | -3
COc1cc(SC)ccc1C(=O)NCc1ccc(C)cc1 | -10 | -13 | 0.8 | 0% | 1
CC(=O)Nc1ccccc1C(=O)C(=O)Nc1cccc(C(=O)N2CC(C)CC(C)C2)c1 (centres undefined) | 4 | x | 5.8 | -8% | -1
Cc1ccc(C(=O)Nc2cc(C(C)C)c(O)c(C(C)C)c2)cc1 | 12 | -31 | -0.3 | 5% | 6
Cc1ccc(OC(=O)CCC(=O)N2CCc3ccccc32)cc1 | -4 | -33 | 1.2 | -14% | -9 | Arbovirus anti repeat=3
O=C(N/N=C1/CCSC1)c1cccc([N+](=O)[O-])c1 | 3 | -19 | -0.9 | -6% | 12
CNC(=O)c1ccsc1NC(=O)CS(=O)(=O)c1ccccc1 | x | x | -0.2 | x | -4
COc1ccccc1N1CC(C)(C)C(=O)N(C(=O)c2c(F)cccc2Cl)C1=S | x | x | 3.8 | 5% | -5

Of the compounds above, these contain a thiophene ring, fused or not.
SMILES | Arbovirus anti | YopH PTP inh | RecA intein inh | Mtb H37Rv | Mtb bLac sens | others
COC(=O)c1c(NC(=O)c2nn(C)cc2Cl)sc2c1CCCC2 | 7 | -34 | -4.4 | -5% | -11
C=CCNC(=O)c1scc2c1CCCC2 | 5 | -39 | 2.3 | 3% | 1
CC(=O)N1CCc2c(sc(NC(=O)c3cccc(N4C(=O)CCC4=O)c3)c2C(N)=O)C1 | x | x | 6.0 | x | -11
CCN(CC)C(=O)CCc1nc2sc3c(c2c(=O)[nH]1)CCCC3 | -3 | -15 | -1.6 | -6% | -2
COC(=O)c1cc(S(=O)(=O)NCC2CCN(CCc3cccs3)CC2)c[nH]1 | x | x | -1.4 | x | 1
CC(=O)NC1=NN(C(C)=O)C(C)(c2ccc(Cl)s2)S1 (centres undefined) | -19 | -26 | 0.3 | -5% | -4
C=CCn1c2ccccc2c2nnc(SC(CC)C(=O)Nc3sc4c(c3C#N)CCCC4)nc21 (centres undefined) | -9 | -20 | -0.4 | -4% | 6
Cc1ccc(/C=N/Nc2ccc(Cl)c(C(=O)O)c2)s1 | 3 | -2 | -5.1 | 4% | -1
COc1ccccc1-n1c(-c2cccs2)nc2ccccc2c1=O | 16 | x | 5.1 | 8% | 0
CNC(=O)c1ccsc1NC(=O)CS(=O)(=O)c1ccccc1 | x | x | -0.2 | x | -4
